SARS PLP yeast: blocks SARS-CoV papain-like protease in a yeast assay. S. cerevisiae expressing SARS-CoV PLpro, growth rescue; control for the full effect not named in the record. Potency, µM (titrated, usually from 32.9 µM), for inactives: at the top dose activity, positive = growth rescue. 330,000 tested, 0.19% active; active means well fitted rising curve with a large enough effect; inconclusive means small, poorly fitted or top-dose-only effect; inactive means no such curve, though single readings can be large or run the other way; also: 0% is about no effect; nearly all actives have a fitted effect of over 55% in size; growth read by luminescence after 48 h
StopGo reporter: FMDV 2A StopGo reporter, luciferase signal; human cells with a luciferase reporter of 2A StopGo recoding; control for the full effect not named in the record; Potency, µM (top dose mostly 57.9 µM), without a hit: at the highest dose signal change, negative = less light; 410,000 tested, 1.2% active; AID 1159524; active = well fitted falling curve with a large enough effect; inconclusive = small, poorly fitted or top-dose-only effect; inactive = no such curve, though single readings can be large or run the other way; tested in HEK293T cells; also: % is scaled to controls: 0 for no effect and ±100 for the full control effect; nearly all actives have a fitted effect of over 45% in size; luciferase light after 4 h
MARV entry inh: blocks Marburg virus binding to or entry into cells. Marburg virus pseudotyped entry inhibition, cell reporter; control for the full effect not named in the record; about a third of the inactives were read at about 46 µM. Potency, µM (highest dose often 37.8 µM), inactives show top-dose activity change, negative = inhibition, hits mostly inhibitors. 300,000 tested, 1.8% active; active = well fitted inhibition curve with a large enough effect; inconclusive = small, poorly fitted or top-dose-only effect, or effect the other way; inactive = flat fitted curve, though single readings scatter; tested in HEK293 cells; about a fifth of its hits are not listed in these tables; also: % is scaled to controls: 0 for no effect and ±100 for the full control effect; luciferase read-out
NS1 inh: blocks influenza NS1 protein function; S. cerevisiae slowed by influenza A NS1, growth recovery by OD600; Potency, µM (top dose mostly 46.1 µM), for inactives: at the top dose activity, positive = more growth; 270,000 tested, 0.4% active; active means well fitted rising curve with a large enough effect; inconclusive means small, poorly fitted or top-dose-only effect; inactive means no such curve, though single readings can be large or run the other way; also: nearly all actives have a fitted effect of over 50% in size
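Growth recovery, yeast-based: influenza A NS1 expressed in S. cerevisiae causes slow growth, and suppressors are detected by OD600. The parent strain without NS1 is used as positive control.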
Cruzain Triton: inhibitors of Trypanosoma cruzi cruzain with detergent; P25779; purified cruzain, Z-FR-AMC fluorescence, 0.01% Triton; Potency, µM, inactives show max response, negative = inhibition, most hits filed as inhibitors; 200,000 tested, 0.43% active;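 also: plate controls were neutral wells for no effect and buffer without enzyme for full effect; nearly all actives have a fitted effect of over 40% in size; top concentration of the series not given in the record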
Target sequence (P25779 123-467 limits assumed): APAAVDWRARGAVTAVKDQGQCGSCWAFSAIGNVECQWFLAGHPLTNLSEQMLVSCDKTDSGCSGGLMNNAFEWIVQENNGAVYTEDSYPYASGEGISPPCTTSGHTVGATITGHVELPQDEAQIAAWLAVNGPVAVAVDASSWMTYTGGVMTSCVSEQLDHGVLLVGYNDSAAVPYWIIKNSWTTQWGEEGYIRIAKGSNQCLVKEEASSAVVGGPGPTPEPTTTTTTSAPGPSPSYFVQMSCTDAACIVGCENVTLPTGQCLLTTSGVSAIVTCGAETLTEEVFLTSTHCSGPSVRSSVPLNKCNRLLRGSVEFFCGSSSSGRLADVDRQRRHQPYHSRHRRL
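Detergent-containing run (0.01% Triton X-100) in acetate buffer pH 5.5 with 5 mM DTT: enzyme at 1.5 nM final, 15 min compound preincubation at room temperature, then 2 uM Z-FR-AMC substrate. Activity taken as 60 s fluorescence increase at 360/450 nm.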
Cruzain inh noDet: cruzain (T. cruzi) inhibition without detergent. Potency, µM, for the others: max response, negative = inhibition, actives largely listed as inhibitors. purified cruzain, Z-FR-AMC fluorescence, no detergent. 200,000 tested, 2.3% active;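 also: plate controls were enzyme without inhibitor for no effect and buffer without enzyme for full effect; nearly all actives have a fitted effect of over 40% in size; top concentration of the series not given in the record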
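Purified cruzain at 1.5 nM, pre-incubated 15 min with compound at room temperature in 100 mM sodium acetate pH 5.5, 5 mM DTT, 0.00005% Triton X-100. Reaction started with 2 uM Z-FR-AMC; AMC fluorescence increase over 60 s gives rate.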
RE007 growth inh: less growth of the S. pombe RE007 Vpr strain; S. pombe RE007 Vpr strain, BacTiter-Glo ATP luminescence, 24 h; control for the full effect not named in the record; Potency, µM (series often up to 92.2 µM), for the others: at the top dose activity change, negative = less growth; 360,000 tested, 0.21% active; AID 651644; active = well fitted falling curve with a large enough effect; inconclusive = small, poorly fitted or top-dose-only effect; inactive = no such curve, though single readings can be large or run the other way;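 also: % is scaled to controls: 0 for no effect and ±100 for the full control effect; nearly all actives have a fitted effect of over 50% in size; the assay follows cell death caused by Vpr and the record does not say whether a fall means rescue or toxicity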
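Fission yeast RE007 carrying one integrated HIV-1 vpr copy, seeded at OD 0.01 in PMG+AL medium with 23 nL pinned compound. Grown 24 h at 30 degrees; viability read by BacTiter-Glo luminescence after 5 min.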
LASV entry inh: Lassa virus entry inhibition; Lassa virus pseudotype entry inhibition, cell reporter; control for the full effect not named in the record; Potency, µM (highest dose often 37.9 µM), inactives show at the top dose activity change, negative = inhibition, most hits filed as inhibitors; 300,000 tested, 1.2% active; AID 540256; active means well fitted inhibition curve with a large enough effect; inconclusive means small, poorly fitted or top-dose-only effect, or effect the other way; inactive means flat fitted curve, though single readings scatter; tested in HEK293 cells; also: % is scaled to controls: 0 for no effect and ±100 for the full control effect; nearly all actives have a fitted effect of over 50% in size; luciferase read-out
An asterisk follows results filed as active; ? = inconclusive; nt = not tested or not shown; & = joins results of further samples; [ ] = dose if it differs, or a comment. Unless noted, calls follow the shape of the dose curve; as a rule, active = well fitted curve in the direction sought with a large enough effect; inconclusive = small, poorly fitted or top-dose-only effect, or another doubt; inactive = no such curve, though single readings can be large; an effect the other way counts as inactive or inconclusive. Potency is read from the fitted curve at half-maximal effect.

SMILES | SARS PLP yeast | StopGo reporter | MARV entry inh | NS1 inh | Cruzain Triton | Cruzain inh noDet | RE007 growth inh | LASV entry inh
c1ccc(Cn2ncc3ccccc32)cc1 | 4% | nt | 0% | 10% | -2.0% | -6% | -3% | -8%
CCc1cccc(Nc2cc(C)nc3nc(C)nn23)c1 | 12% | -16% | nt | -12% | -4.9% | 12% | 7% | nt
COc1ccc(C2/C=C\CNCC(=O)N2Cc2ccc(F)cc2)cc1 (stereo not given) | 1% | 0% | nt | 10% | nt | nt | -27% | nt
CN1C(=S)SC(/[N+]([O-])=C\c2ccco2)C1(C)C (stereo not given) | 13% | -22% | 5%[46.1 µM] | 7% | -2.2% | 3% | -3% | 0%
O=C(N/N=C/c1ccc(OC2CSC2)cc1)c1ccc(CN2CCOCC2)cc1 | -4% | ? | -24%[46.1 µM] | 5% | nt | nt | -20% | ?
COc1ccccc1CCNC(=O)C1CCN(c2nnc(C)c3c(C)n(-c4ccc(C)cc4)nc23)CC1 | 1% | -9%&-27% | nt | 8% | -1.3% | 8% | 13% | ?
CCCCc1nnc(NC(=O)C2CC(=O)N(Cc3ccccc3)C2)s1 (stereo not given) | ? | -27% | nt | 17% | nt | nt | -2% | nt
Cc1noc(NC(=O)c2c(-c3c(Cl)cccc3Cl)noc2C)c1[N+](=O)[O-] | 1% | ? | ? | 7% | nt | nt | 3% | 4%
CCC(=O)NNc1nc2c(Cl)cccc2s1 | 0% | 7% | 12%[46.1 µM] | 2% | nt | nt | 14% | -1%[46.1 µM]
CN1C(=O)c2ccccc2C(C(=O)NCC2CCCO2)C1c1c[nH]c2ccccc12 (stereo not given) | nt | -21% | 11% | -7% | 3.4% | -8% | -19% | -16%

Brought forward from above: 2 compounds, followed by the next part.
SMILES | SARS PLP yeast | StopGo reporter | MARV entry inh | NS1 inh | Cruzain Triton | Cruzain inh noDet | RE007 growth inh | LASV entry inh
CCC(=O)NNc1nc2c(Cl)cccc2s1 | 0% | 7% | 12%[46.1 µM] | 2% | nt | nt | 14% | -1%[46.1 µM]
CN1C(=O)c2ccccc2C(C(=O)NCC2CCCO2)C1c1c[nH]c2ccccc12 (stereo not given) | nt | -21% | 11% | -7% | 3.4% | -8% | -19% | -16%
O=C(CNC(=O)c1nc[nH]c1C(=O)NCc1ccccc1)OCc1ccccc1 | -2% | ? | nt | 8% | nt | nt | 6% | nt
COc1cc(C(=O)OCc2cc3ccccc3[nH]c2=O)cc(OC)c1OC | 4% | 28% | 2% | 1% | 1.6% | 15% | 0% | -23%
O=C(Nc1ccccc1N1CCCCC1)c1ncoc1-c1cccc(F)c1 | 0% | 0% | nt | 6% | nt | nt | -3% | nt
CC(=O)N(Cc1ccc(F)cc1)c1cccc(C)c1C | 14% | -14% | -22%[46.1 µM] | 1% | nt | nt | 41% | -12%
CCN(CC)CCCNC(=O)C(C)n1nc(C)n2c(cc3occc32)c1=O (stereo not given) | nt | -6% | -6%[46.1 µM] | nt | -3.0% | 1% | nt | 11%[46.1 µM]
C/C(=N/NS(=O)(=O)c1cccc([N+](=O)[O-])c1)c1c[nH]c2ccccc12 | 2% | 7% | 8% | 1% | nt | nt | -8% | -1%
CC(C)n1cc(CN2CCN(CCc3ccccc3)C(CCO)C2)cn1 (stereo not given) | 0% | 6% | ? | -2% | nt | nt | -2% | 12%
COc1ccc(NC(=O)C2Cc3ccccc3O/C2=N\O)cc1 (stereo not given) | 0% | 53%[activator] | 15%[46.1 µM] | 4% | nt | nt | 6% | 10%[46.1 µM]
CCOc1ccc(S(=O)(=O)Nc2ccc(C(=O)NCC(C)(C)N3CCOCC3)cc2)cc1 | -2% | 10% | -14% | nt | nt | nt | 0% | -19%
Cc1cccc(C)c1NC(=O)CCCn1c(=O)c2cccn2c2ccccc21 | nt | -18% | nt | nt | -14% | ? | nt | 6%[46.1 µM]
Cc1cc2c(cc1C)NC(CC(=O)NCc1ccccc1)C(=O)N2 (stereo not given) | -6% | 58%[activator] | 14% | 1% | -11% | -11% | -1% | ?
COc1ccc(N2CCN(CNC(=O)c3ccccc3)CC2)cc1 | -3% | -11% | nt | 8% | nt | nt | -8% | nt
Cc1cccc(CNC(=O)CC2C(=O)NCCN2C2CCCC2)c1 (stereo not given) | 1% | 24% | 0%[46.1 µM] | 4% | nt | nt | -1% | 3%
CCOC(=O)c1c(-n2c(C)cc(/C=C3\C(=O)NC(=O)N(C)C3=O)c2C)sc2c1CCCC2 | ? | -9% | ? | 0% | -5.6% | 6% | 10% | ?
O=c1[nH]c(=O)n(-c2ccc(Br)cc2)c(O)c1C=NCCN1CCCCC1 | 2% | 1% | 4%[46.1 µM] | -4% | nt | nt | 23% | -15%
CCCC(C)NS(=O)(=O)c1ccc(OC)c(C)c1 (stereo not given) | -4% | -7% | -5%&-5% | -57% | -4.2% | -10% | -15%[3.69 µM] | 4%
CCC(C)C(NC(N)=O)C(=O)Nc1ccc(S(=O)(=O)Nc2ccc(OC)cc2)cc1 (stereo not given) | 2% | 14% | ? | nt | nt | nt | 16% | -12%
CCOC(=O)C(Sc1ncnc2c1sc1nc(N3CCOCC3)c3c(c12)CCCC3)c1ccccc1 (stereo not given) | 3% | nt | nt | 13% | 8.3% | 3.2µM* | nt | nt
O=C(O)/C=C/c1cnc2ccccc2n1 | 0% | 9% | 3%[46.1 µM] | nt | nt | nt | -4% | 28%[46.1 µM]
O=C(NCC(=O)N(c1ccc(F)cc1)C(C(=O)NC1CCCC1)c1ccncc1)c1ccco1 (stereo not given) | 0% | 12% | 26%[46.1 µM] | -3% | nt | nt | -6% | nt
CC(=O)c1cccc(S(=O)(=O)NCCC(=O)Nc2ccc(S(N)(=O)=O)cc2)c1 | 1% | 17% | 1%[46.1 µM] | 22% | nt | nt | 15% | nt
CCOC(=O)N1CCN(CC(O)COc2c(OC)cccc2OC)CC1 (stereo not given) | 3% | -11% | ? | -7% | 5.7% | 5% | -16% | -4%
COc1ccc(C)cc1S(=O)(=O)NC1CCCCC1C (stereo not given) | 2% | 40%[activator] | 2% | -8% | 0.0% | 0% | -14% | 15%
Cc1ccc(NC(=O)COC(=O)C2(C)CC2(Cl)Cl)cc1S(=O)(=O)N1CCOCC1 (stereo not given) | -1% | -5% | ? | nt | nt | nt | -1% | -4%
CN1c2ccccc2Oc2ccccc21 | -13% | -10% | 3% | 21% | -4.0% | -10% | -16% | 3%
CCOS(C)(=O)=O | -2% | 0% | nt | nt | 2.2% | -2% | 10% | nt
Cc1ccccc1NC(=O)c1cc(S(=O)(=O)N2CCCCC2)cs1 | -8% | nt | -26% | ? | -0.9% | -4% | 8% | 0%
Cn1nc(C(F)(F)F)c(-c2cccc(C(F)(F)F)c2)c1NC(=O)c1cccnc1 | -2% | -22% | nt | 1% | nt | nt | -13% | nt
CC(Oc1ccccc1)C(=O)N1CCN(C(=O)C(C)Oc2ccccc2)CC1 (stereo not given) | -2% | -18% | 6% | -13% | nt | nt | 3% | -8%
O=C(NC1CCN(Cc2ccccc2)CC1)c1ccc(S(=O)(=O)NCc2ccco2)cc1 | -1% | -29% | 3.5µM* | -1% | nt | nt | -12% | -24%[46.1 µM]
O=C(Nc1cccc(C(=O)O)c1)/C(=C\c1ccc2c(c1)OCO2)NC(=O)c1ccccc1Cl | 2% | -15% | nt | -17% | nt | nt | 14% | nt
COc1ccc2nc(NC(=O)Cc3ccc(OC)c(S(=O)(=O)N4CCOCC4)c3)sc2c1 | 26% | 8% | 3%&14% | 1% | -7.6% | ? | 19% | -7%
CCN(CC)c1ccc(C(=O)OCC(=O)Nc2sccc2C#N)cc1 | -15% | 10% | -2% | -15% | -11% | -3% | -6% | ?
Clc1ccc(Oc2ccccc2)c2ncccc12 | 1% | -3% | 6%[46.1 µM] | -7% | nt | nt | -5% | 17%[46.1 µM]
O=C(c1cc(NC(=O)C23CC4CC(CC(C4)C2)C3)cc(NC(=O)C23CC4CC(CC(C4)C2)C3)c1)N1CCCCC1 | -24% | ? | ? | 11µM* | -1.0% | ? | 22% | ?
CC(C)Cc1cc(C(=O)N(C)C2CCCN(Cc3ccccc3F)C2)n(C)n1 (stereo not given) | 10% | -8% | nt | -4% | nt | nt | 7% | nt
Cc1ccc(CSc2ncnc3onc(C)c23)cc1 | -3% | -15% | ? | -47% | nt | nt | 5% | -15%
O=C(NC(=S)NNC(=O)c1ccccc1[N+](=O)[O-])c1ccccc1 | 16% | -2% | 3% | 13% | -0.6% | -11% | 0% | -8%
CCOc1cc(C2CC(=O)Nc3cc(C)c(C)cc32)ccc1O (stereo not given) | -4% | -15% | ? | ? | -1.0% | 16% | 6% | ?
Cc1ccc(-n2cc(-c3ccccc3)c3c(NN4CCOCC4)ncnc32)cc1 | -9% | -21% | 3% | -24% | -7.7% | ? | -9% | -9%
COc1ccc(O)c(CN2CCCC(N3CCc4ccccc4C3)C2)c1 (stereo not given) | 5% | -12% | nt | 8% | nt | nt | 3% | nt
CCOCCCNc1nc2ccccc2[nH]1 | -1% | -11% | -9% | -1% | -9.7% | -12% | 6% | 14%
O=C(Nc1cc(=O)[nH]c2ncnn12)c1ccccc1Cl | 0% | 15% | 21% | ? | 2.9% | -5% | -18% | 29%
CC(C)(C)c1ccc(OCCCC(=O)Nc2ccc(S(N)(=O)=O)cc2)cc1 | 2% | -6% | 9%[46.1 µM] | nt | nt | nt | 50% | ?
O=C(COC(=O)c1cncc(Br)c1)NCc1ccc2c(c1)OCO2 | -4% | -10% | ? | nt | nt | nt | 5% | 28%[46.1 µM]
COc1ccc(NC(=O)Cn2c3ccc(OC)cc3c3nc4n(c(=O)c32)CCS4)cc1 | 14% | -12% | nt | 6% | nt | nt | 11% | nt
CCCCCCCNC(=O)C1(CC2CC(c3ccc(Cl)cc3)=NO2)CCN(C(=O)OC(C)(C)C)CC1 (stereo not given) | -2% | 0% | nt | ? | nt | nt | -5% | nt
Cc1ccc(S(=O)(=O)N=Nc2c(O)[nH]c3ccccc23)cc1C | 0% | 10% | 17% | -10% | 4.6% | -1% | 0% | 2%
